TRPML1 ag = agonists of human TRPML1 channel | 410,000 compounds, 0.12% hits | Q9GZU1 | AID 624414 | activation, % (concentration not given with the values) | TRPML1-expressing cells, Ca2+ dye fluorescence, FDSS; host cell line not named in the record; reference of the full effect not given here; in the data active = activation above about 50%; inconclusive = about 30% to 50%; inactive = below about 30%; note: 0% is about no effect; the text of the record puts the active cut at 80%
Target sequence (Q9GZU1 whole entry, looked up): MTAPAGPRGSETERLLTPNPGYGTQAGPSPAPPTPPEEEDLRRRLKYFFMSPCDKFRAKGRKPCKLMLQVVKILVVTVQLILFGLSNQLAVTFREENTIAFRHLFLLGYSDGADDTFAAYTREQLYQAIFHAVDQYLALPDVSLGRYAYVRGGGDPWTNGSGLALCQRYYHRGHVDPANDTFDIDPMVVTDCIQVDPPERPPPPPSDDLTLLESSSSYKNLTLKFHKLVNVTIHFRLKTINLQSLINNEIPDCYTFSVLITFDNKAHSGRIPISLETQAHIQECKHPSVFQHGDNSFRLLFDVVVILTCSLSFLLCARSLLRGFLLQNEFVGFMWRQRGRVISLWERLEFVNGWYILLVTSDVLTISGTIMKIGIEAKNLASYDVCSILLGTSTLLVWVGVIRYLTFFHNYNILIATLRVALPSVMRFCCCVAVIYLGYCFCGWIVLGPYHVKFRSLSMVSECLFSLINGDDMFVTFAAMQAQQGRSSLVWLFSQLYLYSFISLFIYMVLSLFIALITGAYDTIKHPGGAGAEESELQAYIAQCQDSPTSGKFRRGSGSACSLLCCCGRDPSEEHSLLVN
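In this qHTS format, compounds were pin-transferred onto Ca8-dye-loaded TRPML1-DL cells induced with Tet overnight, and intracellular Ca2+ fluorescence was recorded kinetically for 110 s after a 10 s baseline. A subsequent 4uM final 54-4 (EC80) addition followed by a second 110 s read served as the antagonist phase.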
ClpP mod = qHTS Assay for Activators of ClpP. purified B. subtilis ClpP, FRET peptide cleavage, 20 min. Potency, µM (titrated, usually from 57.5 µM), for the others: at the top dose activity change, negative = active. 340,000 compounds, 1.9% hits; active = well fitted falling curve with a large enough effect; inconclusive = small, poorly fitted or top-dose-only effect; inactive = no such curve, though single readings can be large or run the other way; note: potency is the fitted concentration of half-maximal effect; the source files actives as falling curves though it sought activators and does not explain the sign; nearly all actives have a fitted effect of over 65% in size; many hits overshoot -100%
Target sequence (P80244 whole entry, looked up): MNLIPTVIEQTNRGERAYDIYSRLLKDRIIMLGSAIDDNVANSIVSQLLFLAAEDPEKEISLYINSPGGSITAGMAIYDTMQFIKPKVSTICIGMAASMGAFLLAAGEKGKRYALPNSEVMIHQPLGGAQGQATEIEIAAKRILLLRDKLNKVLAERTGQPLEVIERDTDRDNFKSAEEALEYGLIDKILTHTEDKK
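ClpP 10 microg/mL final, pH 8 Tris/KCl buffer with BSA, glycerol, Tween-20; compound pinned in; FRET-FV substrate; RT 20 min; Ex320/Em430; ΔFRET vs ADEP 5.8 microM, DMSO, no enzyme.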
gsp ag = gsp mutant agonism | gsp mutant cells, cAMP HTRF, 30 min; control for the full effect not named in the record | Potency, µM (doses to about 76.9 µM), inactives show at the highest dose activation (cAMP increase), usual class: activators | 340,000 compounds, 0.13% hits; active = well fitted activation curve with a large enough effect; inconclusive = small, poorly fitted or top-dose-only effect, or another doubt; inactive = no such curve, though single readings can be large or run the other way; cell line not stated here;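 note: phosphodiesterase inhibitor Ro 20-1724 added with compounds to block cAMP breakdown; potency is the fitted concentration of half-maximal effect; nearly all actives have a fitted effect of over 60% in size; about a fifth of the inactives were tested at one dose only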
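Cells stably selected in G418 were plated at 2000/well, grown 16-24 hr, then given compounds in DMSO with the PDE inhibitor […] (300 uM solution added) for 30 min at 37C; cAMP was read by HTRF.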
gsp antag = gsp mutant antagonism | gsp-mutant cells, cAMP HTRF, 30 min; control for the full effect not named in the record | Potency, µM (top dose mostly 76.9 µM), for inactives: at the highest dose activity change, negative = inhibition, actives largely listed as inhibitors | 340,000 compounds, 0.4% hits | AID 624288; active = falling curve of any shape with a large fitted effect; inconclusive = falling curve, mostly with a smaller effect; inactive = flat or rising curve; cell line not stated here;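 note: intracellular cAMP measured with PDE inhibitor Ro 20-1724 present during compound exposure; potency is the fitted concentration of half-maximal effect; % is set by controls: 0 for no effect and ±100 for the full control effect; nearly all actives have a fitted effect of over 65% in size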
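Cells in G418 medium, seeded 16-24 h, 37C; buffer exchange to DPBS + 1 mM CaCl2, 0.5 mM MgCl2, 0.05% BSA; cpds in DMSO + […] (300 uM stock), 30 min 37C; HTRF cAMP detection.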
TRPML1 inh = inhibitors of human TRPML1 channel | Q9GZU1 | TRPML1-inducible cells, Ca2+ dye fluorescence, FDSS; hits give low values; inhibition of EC80 agonist-evoked calcium signal | activity change, negative = inhibition, % (test concentration not listed) | 390,000 compounds, 0.02% hits; in the data active means activity change below about -50%; inconclusive means about -30% to -50%; inactive means above about -30%;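 note: stimulus is agonist 54-4 at its EC80 concentration; % is set by controls: 0 for no effect and ±100 for the full control effect; compound concentration not given in the record; the text of the record puts the active cut at -80%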
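Tet-induced TRPML1-DL cells loaded with Ca8 no-wash calcium dye were read kinetically on FDSS. Compound addition was followed by EC80 agonist 54-4 (4 uM final); inhibition was read over 110 s.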
Menin MLL FP FL = menin-MLL binding inhibition, fluorescein peptide | Fluorescence polarization, fluorescein-MLL peptide displacement from menin | FP activity change, % at 61.4 µM | 290,000 tested, under 10 active; inconclusive = falling polarisation curve, or a change in total fluorescence; inactive = total fluorescence flat and polarisation flat or rising; no compound was filed as active; the % refers to the polarisation; negative = inhibition;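 note: % of control where 0% means no effect; inhibitors lower the polarisation; unlabelled MLL peptide was the positive control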
Starred values were filed as active, the others as inactive; u = inconclusive; x = not tested or not shown; & = joins results of further samples; [ ] = another dose, or the depositor's remark. Compounds as they come. Share with any hit: about 2.1%.

SMILES | TRPML1 ag | ClpP mod | gsp ag | gsp antag | TRPML1 inh | Menin MLL FP FL
O=S(Cc1ccccc1)CC(O)(c1ccccc1)c1ccccc1 (stereo unspecified) | -0.7 | -2.4% | 3% | -7% | 7 | 0.4
Cc1ccc(C2(COC(=O)C(C)C)CO2)c(OC(=O)C(C)C)c1 (stereo unspecified) | x | -0.5% | x | 6% | x | -1.2
CCOC(=O)CNC(=O)C1COc2ccccc2O1 (stereo unspecified) | 0.0 | 0.5% | -11%[15.4 µM] | -2% | -1 | 5.0
COc1cccc(N2CCN(C(=O)c3ccc(OC)c(S(=O)(=O)NC4CC4)c3)CC2)c1 | -0.8 | 0.2% | -69%[inhibitor] | x | 21 | x
OCCC1CN(Cc2cnc(-c3ccccc3)s2)CCN1CCc1ccccc1 (stereo unspecified) | 0.5 | -2.4% | -5% | 6% | 7 | 0.8
O=[N+]([O-])c1ccccc1S(=O)(=O)Nc1ccc(S(=O)(=O)N2CCOCC2)cc1 | 0.5 | x | -21% | -6% | 1 | 3.2
Cc1c(C(=O)NNC(=O)Nc2ccc([N+](=O)[O-])cc2)oc2ccccc12 | 1.6 | -1.9% | -47%[inhibitor] | 3% | -17 | 0.3
Cc1cccc(OCCn2c(-c3ccc(Cl)cc3)nc3ccccc3c2=O)c1 | 0.8 | -5.5% | x | x | 0 | x
CCOC(=O)c1ccc(NC(=O)c2nc(SCc3ccccc3F)ncc2Cl)cc1 | 0.7 | -21% | x | x | 8 | x
CCOC(=O)C1C2C=CC3(CN(c4cccc(Cl)c4)C(=O)C13)O2 (stereo unspecified) | 2.7 | 2.2% | -32%[inhibitor] | 11% | 25 | 2.7
COc1cccc(/C=C2\Oc3ccc(O)cc3C2=O)c1O | 10 | x | -12%[15.4 µM] | -21% | 5 | u
CCN(C(=O)CN1C(=O)NC2(CCCc3ccccc32)C1=O)c1ccc(F)cc1 (stereo unspecified) | 7.3 | -0.7% | 13% | 8% | -11 | x
COc1ccc(NC(=O)N[C@@H](CCSC)C(=O)O)cc1Cl | -0.6 | -1.8% | 0% | 13% | -17 | -3.0
CC(=O)c1cc(C#N)c(SCc2ccccc2)nc1C | 3.2 | -2.4% | 28% | -9% | 2 | 4.0
CCS(=O)(=O)N1CCN(c2ccc([N+](=O)[O-])c(N3CCOCC3)c2)CC1 | -0.1 | 1.9% | 4% | 1% | 18 | 6.2
Cc1ccc(C(=O)O/N=C(\N)c2cccc([N+](=O)[O-])c2)cc1 | 0.8 | 1.1% | 6% | -8% | 17 | 0.1
CCOC(=O)c1c(NC(=O)COc2ncnc3ccccc23)sc(C)c1CC | 5.7 | -15% | 40% | u | -7 | 3.7
COc1ccc(OC)c(/C=N/NC(=O)CSc2cc(C)nc3c(OC)cccc23)c1 | -0.4 | x | -1%[15.4 µM] | -10% | 3 | -1.2
CCc1cccc(C)c1NC(=O)CCN1C(=O)NC(C)(C)C1=O | 0.5 | 0.0% | -25% | 13% | 18 | x
O=C(CSc1ncc2c(n1)-c1ccccc1N(Cc1ccc(F)cc1)S2(=O)=O)NCCc1ccccc1 | 0.8 | -24% | x | x | 4 | x

Rewritten as labelled records: entries from further up
> CCOC(=O)CNC(=O)C1COc2ccccc2O1 (stereo unspecified)
  TRPML1 ag: 0.0
  ClpP mod: 0.5%
  gsp ag: -11%[15.4 µM]
  gsp antag: -2%
  TRPML1 inh: -1
  Menin MLL FP FL: 5.0
> O=[N+]([O-])c1ccccc1S(=O)(=O)Nc1ccc(S(=O)(=O)N2CCOCC2)cc1
  TRPML1 ag: 0.5
  ClpP mod: x
  gsp ag: -21%
  gsp antag: -6%
  TRPML1 inh: 1
  Menin MLL FP FL: 3.2
> CCN(C(=O)CN1C(=O)NC2(CCCc3ccccc32)C1=O)c1ccc(F)cc1 (stereo unspecified)
  TRPML1 ag: 7.3
  ClpP mod: -0.7%
  gsp ag: 13%
  gsp antag: 8%
  TRPML1 inh: -11
  Menin MLL FP FL: x

A run of entries taken from the entries so far, as a working copy:
SMILES | TRPML1 ag | ClpP mod | gsp ag | gsp antag | TRPML1 inh | Menin MLL FP FL
O=S(Cc1ccccc1)CC(O)(c1ccccc1)c1ccccc1 (stereo unspecified) | -0.7 | -2.4% | 3% | -7% | 7 | 0.4
Cc1ccc(C2(COC(=O)C(C)C)CO2)c(OC(=O)C(C)C)c1 (stereo unspecified) | x | -0.5% | x | 6% | x | -1.2

Back to the main list; the five compounds before the break are reprinted first.
SMILES | TRPML1 ag | ClpP mod | gsp ag | gsp antag | TRPML1 inh | Menin MLL FP FL
Cc1ccc(C(=O)O/N=C(\N)c2cccc([N+](=O)[O-])c2)cc1 | 0.8 | 1.1% | 6% | -8% | 17 | 0.1
CCOC(=O)c1c(NC(=O)COc2ncnc3ccccc23)sc(C)c1CC | 5.7 | -15% | 40% | u | -7 | 3.7
COc1ccc(OC)c(/C=N/NC(=O)CSc2cc(C)nc3c(OC)cccc23)c1 | -0.4 | x | -1%[15.4 µM] | -10% | 3 | -1.2
CCc1cccc(C)c1NC(=O)CCN1C(=O)NC(C)(C)C1=O | 0.5 | 0.0% | -25% | 13% | 18 | x
O=C(CSc1ncc2c(n1)-c1ccccc1N(Cc1ccc(F)cc1)S2(=O)=O)NCCc1ccccc1 | 0.8 | -24% | x | x | 4 | x
COc1ccc(C2CC(C(F)(F)F)n3nc(C(=O)O)cc3N2)cc1OC (stereo unspecified) | -0.3 | -4.5% | u | 6% | -4 | 4.1
O=C(Nc1ccc(N2CCOCC2)cc1Cl)C1CCN(C(=O)OCc2ccccc2)CC1 | 0.7 | 0.4% | -2% | u | 2 | 3.4
Cc1ccc(CNc2ccc3c(c2)OCO3)cc1 | 5.7 | -1.7% | -3% | 5% | 29 | u
Cc1nc2cccc(C)n2c(=O)c1Cl | 3.7 | -0.6% | 23% | 13% | 7 | -0.3
CN(CC(=O)Nc1ccccc1Cl)C(=O)COC(=O)CN1C(=O)NC2(CCCC2)C1=O | 0.0 | 0.5% | 3%[15.4 µM] | -2% | -2 | x
O=C(Nc1nccs1)c1ccc2c(c1)C(=O)N(Cc1cccnc1)C2=O | 0.6 | -2.0% | u | -17% | 0 | x
CCCc1cc(=O)n2[nH]c(NCc3ccc(OC)cc3)nc2n1 | 0.4 | x | -14%[15.4 µM] | 14% | -13 | 2.3
Cc1ccc(C2CC(=O)Nc3cc4c(cc32)OCCO4)s1 (stereo unspecified) | 0.8 | -0.5% | -12% | -21% | 7 | 0.3
Cn1nccc1/C=C(/C#N)S(=O)(=O)c1ccccc1 | 1.9 | -1.2% | -32%[inhibitor] | -7% | 9 | 0.9
O=C(NCC(=O)N(c1cccnc1)C(C(=O)NC1CCCC1)c1ccccc1)c1ccco1 (stereo unspecified) | -0.4 | x | 16%[15.4 µM] | -4% | 6 | -1.7
Cc1cc(N)ccc1-n1c(C)ccc1C | 0.8 | 32µM* | u | -8% | 21 | 1.0
CCOC(=O)CC1(C)NC(C(=O)O)C(C)(C)S1 (stereo unspecified) | -0.6 | -2.7% | 2% | 8% | -16 | x
CC(OC(=O)C1CC1)C(=O)Nc1cc(Cl)cc(Cl)c1 (stereo unspecified) | 0.5 | x | u | -1% | 1 | x
Cn1c(O)c(N=NC(=S)Nc2ccccc2F)c2cc(S(=O)(=O)N3CCOCC3)ccc21 | 0.1 | -0.1% | 1% | -20% | 21 | -0.9
N#Cc1ccc(C23CC4(C2)[C@H](CN(CC2CCCCC2)[C@@H]4c2ccccc2)C3c2ccccc2)cc1 (stereo partly specified) | -0.4 | -1.0% | 4% | 2% | -8 | 4.8&8.6
COc1ccccc1CNS(=O)(=O)c1ccc(S(=O)(=O)NC2CC2)cc1 | -1.1 | -7.7% | -19%[15.4 µM] | 11% | -2 | 7.5
COc1ccc(/C=C/C(O)=C(\C#N)c2nnc(N3CCOCC3)n2-c2ccccc2)cc1OC | -0.6 | 2.0% | 0%[15.4 µM] | -5% | 20 | 1.5
C/C(=N\NC(=O)C1CCCC1)c1ccc(NC(=O)C(F)(F)F)cc1 | -0.6 | -0.9% | x | x | -8 | x
CCOC(=O)c1c(C)oc2c(Cl)cc(NS(=O)(=O)c3ccc(Cl)c(C)c3)cc12 | 0.7 | -1.3% | x | x | 48 | x
COc1ccc(CCNC(=O)C2c3ccccc3C(=O)N2CCC(C)C)cc1OC (stereo unspecified) | 1.3 | -3.1% | -35%[inhibitor] | 4% | 1 | -7.7
COc1cccc(CSc2nc(-c3ccccc3OC)nc3c2Cc2c(CO)cnc(C)c2O3)c1 | 2.0 | -4.2% | x | x | -11 | x
Cc1cccc(N(Cc2ccccc2)C(=O)CSC(C)C(=O)Nc2cc(C)on2)c1 (stereo unspecified) | 0.5 | 0.4% | 8%[15.4 µM] | -1% | 3 | x
COc1ccc(C)cc1NC(=O)CC(O)(C(F)(F)F)C(F)(F)F | 0.1 | -2.1% | u | 8% | -16 | 1.8
Cc1ccc(OCCCCc2c(C)n[nH]c2C)cc1 | 1.7 | 2.2% | 22% | -1% | -3 | -1.1
CN(C)CCCn1c(SCC(=O)N2c3ccccc3Sc3ccccc32)nc2ccccc2c1=O | 0.7 | -5.4% | -20% | 15% | 10 | 2.0
O=C(NCc1ccccn1)c1ccc(Cl)s1 | 0.2 | 0.1% | -7% | 4% | 17 | 1.7
O=C(Cn1cc(COc2cc(F)cc(F)c2)nn1)c1ccc(O)cc1 | -1.0 | -0.5% | x | 3% | 19 | x
Oc1ccc2ccc(Cl)cc2c1 | 2.3 | -4.5% | 4% | -11% | -21 | x
CCOC(=O)CSc1nc2c(sc(=S)n2-c2ccccc2)c(=O)n1-c1ccc(OC)cc1OC | x | -1.8% | -71%[inhibitor] | -18% | x | -13
CC(=O)OCC1OC(n2c3c(cc(C#N)c2=S)CCCC3)C(OC(C)=O)C(OC(C)=O)C1OC(C)=O (stereo unspecified) | 0.1 | 1.6% | u | -6% | -29 | x
CSCCC1NC(=O)N(CC(=O)N2CCc3ccccc3C2)C1=O (stereo unspecified) | -0.9 | 1.2% | 10% | 18% | -1 | x
O=C(NCCSCc1c(F)cccc1Cl)c1ccco1 | 0.1 | -0.2% | -9% | 11% | 4 | 4.5

Screening data as filed in PubChem BioAssay.
